HPGD inh: inhibitors of human 15-hydroxyprostaglandin dehydrogenase (HPGD). purified HPGD, NADH fluorescence kinetic, PGE2 substrate. actives 4.3% (n = 150,000). Potency, µM, for inactives: at the highest dose activity change, negative = inhibition, most hits filed as inhibitors. P15428; active = well fitted inhibition curve with a large enough effect (not every such curve was filed as active); inconclusive = small, poorly fitted or top-dose-only effect, or another doubt; inactive = no such curve, though single readings can be large or run the other way;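 note: top concentration of the series not given in the record; plate controls included wells without enzyme; inactives centre near -10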
Target sequence (P15428 whole entry, looked up): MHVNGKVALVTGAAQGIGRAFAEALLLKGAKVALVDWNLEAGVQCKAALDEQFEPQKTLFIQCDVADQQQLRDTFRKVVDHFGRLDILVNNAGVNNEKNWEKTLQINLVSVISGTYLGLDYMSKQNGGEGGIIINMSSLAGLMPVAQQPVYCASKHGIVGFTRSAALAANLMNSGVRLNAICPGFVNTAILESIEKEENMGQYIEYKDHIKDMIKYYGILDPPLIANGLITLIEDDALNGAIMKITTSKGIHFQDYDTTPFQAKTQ
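20 nM HPGD preincubated 15 min at room temperature with compound in 50 mM Tris-HCl pH 8, 0.01% Tween 20. Started with 1 mM NAD+ and 30 uM prostaglandin E2; NADH fluorescence (360/450 nm) read 5 times over 30-s intervals, last minus first.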
Starred values were filed as active, the others as inactive; ? = inconclusive; & = joins results of further samples. % is set by controls: 0 for no effect and ±100 for the full control effect; potency is the fitted concentration of half-maximal effect.

SMILES	HPGD inh
Cc1ccc([N+](=O)[O-])cc1N	-3%
C=CCn1c(SCC(=O)c2[nH]c(C)c(C(=O)OCC)c2C)nc2scc(-c3ccccc3)c2c1=O	-4%
COc1ccc(C(C(=O)NC2CCCC2)N(Cc2ccccc2)C(=O)c2nsc(Cl)c2Cl)cc1 (stereo not drawn)	-15%
O=C(c1ccc(Br)o1)N1CCN=C1SCc1cccnc1	-8%
C=CCN1C(=O)C(Cc2ccc(Br)cc2)S/C1=N\N=C\c1ccco1 (stereo not drawn)	-3%
Cc1ccc(C(=O)c2cnc3cc4c(cc3c2S(=O)(=O)c2ccccc2)OCCO4)cc1	?
O=C1CC(SCc2nc3ccccc3[nH]2)C(=O)N1c1cccc(Cl)c1 (stereo not drawn)	-19%
COc1ccc(S(=O)(=O)NC(C)C(=O)Nc2ccccc2F)cc1 (stereo not drawn)	-7%
Cc1ccc(S(=O)(=O)c2cccc(S(=O)(=O)N3CCCC3)c2)cc1S(=O)(=O)N1CCCC1	-6%
Oc1oc(-c2ccccc2)nc1C=NCc1ccccc1	-24%
Cc1ccc(S(=O)(=O)N(CC(=O)Nc2cccc([N+](=O)[O-])c2)C2CCCCC2)cc1	-4%
CCOCCn1c(SCC)nc2c1c(=O)[nH]c(=O)n2C	-14%

A section from further up:
SMILES	HPGD inh
COc1ccc(C(C(=O)NC2CCCC2)N(Cc2ccccc2)C(=O)c2nsc(Cl)c2Cl)cc1 (stereo not drawn)	-15%
O=C(c1ccc(Br)o1)N1CCN=C1SCc1cccnc1	-8%
C=CCN1C(=O)C(Cc2ccc(Br)cc2)S/C1=N\N=C\c1ccco1 (stereo not drawn)	-3%
Cc1ccc(C(=O)c2cnc3cc4c(cc3c2S(=O)(=O)c2ccccc2)OCCO4)cc1	?

More records follow.
SMILES	HPGD inh
CCC(C)(C)n1nnnc1C(c1cc2cc(OC)ccc2[nH]c1=O)N1CCc2ccccc21 (stereo not drawn)	-16%
O=C(Nc1ccon1)c1cc(-c2ccccc2)nc2ccccc12	?
CCOC(=O)c1c(-c2cccs2)csc1NC(=O)CN(CC)CC	-23%
N=C1C(c2nc3ccccc3c(=O)[nH]2)=C(O)CN1c1ccccc1	?
CCC(Oc1cc(Cl)ccc1Cl)C(=O)NNC(=O)CCC(=O)O (stereo not drawn)	0%
Cc1ccc(-c2nn(C)c(=O)c3ccccc23)cc1S(=O)(=O)N1CCCC1	?
Cc1cc(C)n2c(SCCN3C(=O)c4ccccc4C3=O)nnc2n1	-7%
Cc1cc(NC(=O)CSc2nnc(NC(=O)C3CC(=O)N(c4ccccc4)C3)s2)no1 (stereo not drawn)	-13%
COc1cc(OC)c2ccc(=O)oc2c1	?
Cc1sc(NC(=O)c2oc3ccccc3c2C)c(C#N)c1C	?
Cc1ccc(Cl)c2c1NC(=O)C2(O)CC(=O)c1ccccc1O (stereo not drawn)	-14%
CCc1ccc(C(=O)NCc2ccc(Cl)cc2Cl)cc1	-12%
COc1ccccc1-c1coc2cc(O)cc(O)c2c1=O	-13%
COCCn1c(SCC(N)=O)nnc1-c1c[nH]c2ccccc12	-2%
CN1CCN(c2ccccc2NC(=O)c2cccc(OCc3ccccc3)c2)CC1	-14%
CCCCCn1c(CN2CCN(c3cc(Cl)ccc3C)CC2)nc2c1c(=O)[nH]c(=O)n2C	-12%
C/C(=C\c1ccccc1)C(=O)N1CCN(c2cccc(C(F)(F)F)c2)CC1	25µM*
CC(=O)c1ccc(C(C)(C)c2ccc(C(C)=O)s2)s1	-27%
CCC(C)C(NS(=O)(=O)c1ccc(C)cc1)C(=O)Oc1ccc2c3c(c(=O)oc2c1)CCC3 (stereo not drawn)	-23%
Cc1cc(NS(=O)(=O)c2ccc(NC(=O)Nc3ccc4c(c3)OCO4)cc2)no1	-22%
CCCCCCCCCCCCCCCC(=O)OC/C=C(C)/C=C/C=C(C)/C=C/C1=C(C)CCCC1(C)C	-18%
Cc1cc(C)c2[nH]c(O)c(N=NC(=O)c3cc4c(s3)CCCC4)c2c1	-12%
CCCN=CC1=C(O)CC(c2ccccc2)CC1=O (stereo not drawn)	-10%
CC(C)C(=O)N(c1cc2sc(=O)oc2c2ccccc12)S(=O)(=O)c1cccs1	-23%

Part of the list above, with each value named:
> CCCCCn1c(CN2CCN(c3cc(Cl)ccc3C)CC2)nc2c1c(=O)[nH]c(=O)n2C
- HPGD inh = -12%

> C/C(=C\c1ccccc1)C(=O)N1CCN(c2cccc(C(F)(F)F)c2)CC1
- HPGD inh = 25µM*

> CC(=O)c1ccc(C(C)(C)c2ccc(C(C)=O)s2)s1
- HPGD inh = -27%

> CCC(C)C(NS(=O)(=O)c1ccc(C)cc1)C(=O)Oc1ccc2c3c(c(=O)oc2c1)CCC3 (stereo not drawn)
- HPGD inh = -23%

The list continues:
SMILES	HPGD inh
CCN(CC(N)=O)S(=O)(=O)c1ccc(Br)cc1	-7%
Cn1c(CCN2CCN(c3ccccc3)CC2)nc2cc(NC(=O)c3ccco3)ccc21	-3%
CCN(CC)S(=O)(=O)c1cc(Br)ccc1OC	-12%
O=C(N/N=C/c1ccccn1)c1cc(-c2ccncc2)nc2ccccc12	-12%
O=C(c1ccccc1F)N1CCCC(c2ccccc2)C1 (stereo not drawn)	-17%
CCCC/C(O)=C/c1nc2ccccc2[nH]c1=O	-11%
Cc1nc(NC(=O)c2ccccc2)sc1-c1csc(Nc2cccc(F)c2)n1	-15%
CCCCC(=O)NC(NC(=S)N1CCCCCC1)C(Cl)(Cl)Cl (stereo not drawn)	-12%
CCCNC(=O)NC(=O)CSc1nnc(C)n1N	-2%
CC1(C)Cc2c(sc3[nH]c(=S)n(Cc4ccco4)c(=O)c23)CO1	22µM*
Cc1cccc(N(C)C(=S)Oc2ccc3ccccc3c2)c1	3%&-10%&-12%
CN1C(=O)C(O)(CC(=O)c2ccccn2)c2cc(Br)ccc21 (stereo not drawn)	-17%
COc1cccc(Cn2c(=O)c(C)nc3cnc(N4CCOCC4)nc32)c1	-17%
CCOC(=O)C1=C(c2ccccc2)NC(SCC(=O)Nc2ccc(C)cc2)=C(C#N)C1c1ccco1 (stereo not drawn)	-27%
COc1ccc(NC(=O)c2cc(Cl)ccc2NC(=O)c2ccco2)c(OC)c1	-22%
CC1CCCCC1NC(=O)C(Cc1ccccc1)NS(=O)(=O)c1cccs1 (stereo not drawn)	1%
COC(=O)c1sccc1NC(=O)C1C2C=CC(C2)C1C(=O)O (stereo not drawn)	-4%
Cc1ccc(NC(=O)CSc2nnc(CSc3nc(C)cc(C)n3)n2Cc2ccco2)c(C)c1	-4%
CCS(=O)(=O)n1nc(-c2ccccc2)nc1N	2%
COc1cc2cc(/C=C/C(=O)c3ccco3)c(Cl)nc2cc1OC	-5%
O=C(c1ccncc1)N1CCC2(CCN(Cc3ccccc3)CC2)CC1	-10%
CC(=O)OCc1c(C(F)(F)F)nn(C)c1SCc1ccc(Cl)cc1	-23%
O=C(COC(=O)c1ccccc1NC(=O)c1ccco1)NCCC1=CCCCC1	?
Cc1ccc(/C=C2/NC(=O)N(Cc3ccccc3)C2=O)s1	-20%
COCCNC(=O)C(=O)NCC1OCCN1C(=O)c1ccc(Cl)cc1 (stereo not drawn)	-1%
Clc1ccc(N=c2ssnc2Cl)cc1	1.8µM*
O=C(COC(=O)Cc1cccs1)Nc1ccc(F)c(F)c1F	-12%
O=C(NCCc1nc2ccccc2[nH]1)/C(=C/c1ccc2c(c1)OCO2)NC(=O)c1ccccc1	-4%
O=[N+]([O-])/C=C\c1cc2ccccc2[nH]1	-5%
O=S(=O)(NC1=NCCC1)c1cccs1	-16%
Cc1cccc(-n2ncc3c(NCCCn4ccnc4)ncnc32)c1	?
NC(=O)c1c(N)sc(=S)n1-c1ccccc1	-12%
O=C(Nc1ccc2c(c1)OCO2)C1CCCN(S(=O)(=O)Cc2ccccc2)C1 (stereo not drawn)	-17%
C=CC(C)n1c(Br)nc2c1c(=O)[nH]c(=O)n2C (stereo not drawn)	2%
CCN1C(=O)/C(=C\N2CCCc3ccccc32)SC1=S	-10%
Cc1ccccc1C#N	-1%

Printed as active in HPGD inh (from the list above):
SMILES	HPGD inh
C/C(=C\c1ccccc1)C(=O)N1CCN(c2cccc(C(F)(F)F)c2)CC1	25µM*
CC1(C)Cc2c(sc3[nH]c(=S)n(Cc4ccco4)c(=O)c23)CO1	22µM*
Clc1ccc(N=c2ssnc2Cl)cc1	1.8µM*

Following part:
SMILES	HPGD inh
O=C(COc1ccc2ccccc2c1)N1CCCC1	?
COc1ccc(CCN(CC(=O)NC2CCCC2)C(=O)CCC(=O)Nc2cc(C)on2)cc1OC	-7%
COc1ccc(-c2nnc3sc(CN4C(=O)c5ccccc5C4=O)nn23)cc1	-20%
CCOC(=O)/C(=C/c1c(C)n(C)c2ccc([N+](=O)[O-])cc12)C(C)=O	-27%
Cc1ccc(C(=O)Oc2cc(-c3ccccc3)no2)cc1	-4%
Cc1cc2ccccc2n1CCNC(=O)C1CCCC1	-4%
CCOC(=O)C1=C(C)OC(N)=C(C#N)C1c1ccc(C)o1 (stereo not drawn)	-28%
O=C(c1cccc(F)c1)N1CCC(N2CCCCCC2)CC1	3%
COc1ccc(OCC(=O)Nc2ccc(NC(=O)c3ccco3)cc2)cc1	?
CCOc1ccccc1N1CN(CC)CNC1=S	-7%
COc1ccc(CN(C(=O)Cc2c[nH]c3ccccc23)C(C(=O)NC2CCCCC2)c2ccc(C)o2)cc1 (stereo not drawn)	-18%
Cc1ccc(/C=N/NC(=O)CSc2nc3ccccc3n2Cc2ccc(Cl)cc2)o1	-14%
CCN1C(=O)[C@@H]2[C@H](C1=O)[C@@H]1C[C@H]3C(=O)N(CC)C(=O)[C@H]3[C@@H]3C1=C(C(=O)N1C(=O)O/C(=N\CC4CC4)[C@]31C)[C@@H]2C	-6%
CC(=O)Nc1ccc(N2C(=O)CCC2=O)cc1C	-7%
NC(=O)CSc1nc2ccccc2n1Cc1ccccc1F	-8%
COc1ccc(CNC(=O)COc2ccc(C(=O)c3ccc(F)cc3)cc2)cc1	-12%
COc1cc(OC)c(CN2CCN(c3ccc(F)cc3)CC2)cc1Br	-1%
N=c1n(CCN2CCOCC2)c2ccccc2n1CC(O)COc1ccccc1 (stereo not drawn)	-16%
Cc1ncoc1C(=O)Nc1ccccc1-c1ccccc1	5%
COc1ccc(Oc2ncc3nc(C)c(=O)n(-c4ccc(OC)cc4)c3n2)cc1	-22%
O=C(NCC1CCCO1)c1onc(CSc2cccc3ccccc23)c1C(=O)O (stereo not drawn)	?
Cc1ccc(S(=O)(=O)c2ccc(Cl)cc2)cc1S(=O)(=O)N1CCOCC1	-18%
CC(=O)c1sc(NC(=O)c2ccc(F)c(F)c2)nc1C	-6%
CCOc1cc(/C=N/Nc2ncnc(Cl)c2N)ccc1O	-11%
COc1ccc(CN2CCC(CNC(=O)NC3CCCCC3)CC2)cc1	-5%
O=C(Nc1ccccc1)c1ccncc1	-10%
O=C(Nc1ccc2c(c1)OCO2)c1cccc2c1C(=O)N(Cc1cccnc1)C2	-4%
CC1CCCC(C)N1S(=O)(=O)c1ccc(NC(=O)CNCC2CCCO2)cc1 (stereo not drawn)	3%
CC(=O)SCCC(=O)N1C(C)CCCC1C(=O)O (stereo not drawn)	0%
CCCNC(=O)Cn1nc(C(F)(F)F)c2c1CCCC2	3%
Cc1ccc(Cl)cc1N1CCN(CC(=O)NC2CCCc3ccccc32)CC1 (stereo not drawn)	-4%
O=C(NCc1ccccc1)c1cc(S(=O)(=O)N2CCOCC2)ccc1F	-3%
COc1ccc(C(=O)N2CCC3(CCCN(c4cccc(-c5ccccc5)c4)C3)CC2)cc1	-23%
OC[C@@H](O)COc1cccc2ccccc12	-12%
O=C1c2cccc3cccc(c23)C(=O)N1c1ccncc1	?
COCC(=O)N1CCC2(CC1)CN(c1ccc(-c3ccccc3)cc1)C2	?
O=C(OCn1nnc2ccccc2c1=O)c1ccc2ncsc2c1	25µM*
N#CC(C(=O)c1ccc(S(=O)(=O)N2CCCCCC2)cc1)c1nc2ccccc2[nH]1 (stereo not drawn)	?
CS(=O)(=O)N(CCc1ccccc1)CC(=O)NCc1ccccn1	2%
CCOc1ccccc1-n1c(SCC(=O)NC2CCCC2)nnc1-c1ccoc1C	-13%
Cc1cc(N)c(C)c([N+](=O)[O-])c1C	-8%
CCOC(=O)N1CCN(C(=O)c2ccc(CNS(=O)(=O)c3ccc(C)cc3)cc2)CC1	-5%
COc1cc(OC)c2c(=O)c(-c3ccccc3)c(C)oc2c1OC	-1%
CCN(CC)CCNC(=O)C1c2ccccc2C(=O)N(C)C1c1cn(C)c2ccccc12 (stereo not drawn)	-11%
O=S(=O)(c1ccccc1)N1CCC2(CCCN(c3ccccc3)C2)CC1	-7%
O=C(NCC1CCS(=O)(=O)C1)Oc1ccccc1 (stereo not drawn)	-6%
COc1cc(C(=O)Oc2ccccc2/C=N/NC(=O)c2ccc(Cl)cc2Cl)cc(OC)c1OC	-11%
CCOC(=O)CC1C(=O)NCCN1S(=O)(=O)c1ccccc1Cl (stereo not drawn)	-11%

Copied from the list.
CCOC(=O)CC1C(=O)NCCN1S(=O)(=O)c1ccccc1Cl (stereo not drawn) | HPGD inh = -11%
CCOc1ccccc1-n1c(SCC(=O)NC2CCCC2)nnc1-c1ccoc1C | HPGD inh = -13%
COc1cc(OC)c2c(=O)c(-c3ccccc3)c(C)oc2c1OC | HPGD inh = -1%
O=C(NCC1CCS(=O)(=O)C1)Oc1ccccc1 (stereo not drawn) | HPGD inh = -6%
O=C(OCn1nnc2ccccc2c1=O)c1ccc2ncsc2c1 | HPGD inh = 25µM*
O=S(=O)(c1ccccc1)N1CCC2(CCCN(c3ccccc3)C2)CC1 | HPGD inh = -7%

Remaining list, next part:
SMILES	HPGD inh
O=c1c2ccccc2nc2n1CCS2	-1%
N#C/C(=C/c1ccc(Sc2nc3ccccc3[nH]2)o1)c1cccc(F)c1	?
COc1ccc(Cn2c(N)c(S(=O)(=O)c3cccs3)c3nc4ccccc4nc32)cc1	?
CCNC(=S)NNC(=O)c1cc(-c2ccc(OCC)cc2)nc2ccccc12	?

Screening results: PubChem, National Center for Advancing Translational Sciences (NCATS)

Not all compounds are listed. The share of hits here may be higher or lower than overall.
